D2 PAM – potentiates the human D2 dopamine receptor allosterically; DiscoveRx D2 beta-arrestin cells, luminescence, 90 min; 100% = 57 uM dopamine signal; actives 0.23% (n = 360,000); P14416; potentiation, % (no concentration beside the values); AID 624464; active = potentiation of 50% or more; inconclusive = 30% to 50%; inactive = 30% or less;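 also: compound concentration not given in the record; tested on top of an EC20 dose of dopamine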
Target sequence (P14416 whole entry, looked up): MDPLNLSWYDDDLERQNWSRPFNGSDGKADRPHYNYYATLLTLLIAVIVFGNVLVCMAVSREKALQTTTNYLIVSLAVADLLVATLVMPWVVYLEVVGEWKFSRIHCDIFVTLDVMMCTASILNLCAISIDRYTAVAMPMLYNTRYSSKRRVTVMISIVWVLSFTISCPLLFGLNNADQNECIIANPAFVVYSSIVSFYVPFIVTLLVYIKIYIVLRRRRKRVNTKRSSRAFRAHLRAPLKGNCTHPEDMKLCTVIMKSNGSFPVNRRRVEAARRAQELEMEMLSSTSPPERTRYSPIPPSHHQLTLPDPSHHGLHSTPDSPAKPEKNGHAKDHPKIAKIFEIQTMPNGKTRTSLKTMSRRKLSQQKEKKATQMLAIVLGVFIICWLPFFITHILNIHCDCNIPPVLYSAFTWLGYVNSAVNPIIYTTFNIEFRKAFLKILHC
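PathHunter beta-arrestin assay in DiscoveRx D2 cells. Compounds were added with an EC20 of dopamine (50 nM final) for 90 min at 37 deg C. Luminescence was read 1 h after detection reagent, with 57 uM dopamine as the EC100 control.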
PINK1 expr mod – changes PINK1 expression | actives 0.2% (n = 410,000) | PINK1 immunofluorescence, high-content cytometry, 24 h | Potency, µM (titrated, usually from 76.6 µM), for inactives: at the top dose activation (PINK1 increase), most hits filed as activators; active = well fitted activation curve with a large enough effect; inconclusive = small, poorly fitted or top-dose-only effect; inactive = flat fitted curve, though single readings scatter; cell line not stated here;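 also: potency is read from the fitted curve at half-maximal effect; % of control where 0% means no effect; nearly all actives have a fitted effect of over 65% in size; a mitochondrial uncoupler was the plate control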
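Compound titrations (5 concentrations, 24 h) on a stable cell line; DMSO and CCCP controls. Endpoint: fixed-cell PINK1 immunofluorescence with mitochondrial, cell and nuclear markers, scanned by microplate cytometer.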
Six1-Eya2 inh – inhibitors of human Six1/Eya2 interaction; Q15475+O00167; AlphaScreen GST-Six1/His-Eya2 binding, biochemical; stronger effect = lower value; control for the full effect not named in the record; activity change, % (no concentration beside the values); actives 0.56% (n = 360,000); in the data active = activity change below about -65%; inconclusive = about -30% to -65%; inactive = above about -30%; also: % is scaled to controls: 0 for no effect and ±100 for the full control effect; compound concentration not given in the record
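Compounds are tested against tagged Six1 and Eya2 proteins bridged by glutathione donor and nickel acceptor beads; after a one-hour incubation at 37 °C without light, AlphaScreen emission is recorded.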
D2 ag – agonists of human D2 dopamine receptor (beta-arrestin) | P14416 | DiscoveRx PathHunter D2 beta-arrestin, luminescence, 90 min; 100% = 57 uM dopamine signal | activation, % (no concentration beside the values) | actives 0.084% (n = 360,000) | AID 624465; in the data active = activation above about 40%; inconclusive = about 15% to 40%; inactive = below about 15%; also: compound concentration not given in the record; the text of the record calls up to 30% inactive
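Agonist mode: compounds alone added to overnight-plated D2 PathHunter cells for 90 min at 37 C, with 57 uM final dopamine (EC100) defining full response. Beta-arrestin recruitment detected by chemiluminescent reagent, read after 1 h at ambient temperature.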
TRPML1 ag – human mucolipin-1 channel agonism; TRPML1-expressing cells, Ca2+ dye fluorescence, FDSS; host cell line not named in the record; reference of the full effect not given here; activation, % (test concentration not listed); actives 0.12% (n = 410,000); in the data active = activation above about 50%; inconclusive = about 30% to 50%; inactive = below about 30%; also: 0% is about no effect; the text of the record puts the active cut at 80%
Target sequence (Q9GZU1 whole entry, looked up): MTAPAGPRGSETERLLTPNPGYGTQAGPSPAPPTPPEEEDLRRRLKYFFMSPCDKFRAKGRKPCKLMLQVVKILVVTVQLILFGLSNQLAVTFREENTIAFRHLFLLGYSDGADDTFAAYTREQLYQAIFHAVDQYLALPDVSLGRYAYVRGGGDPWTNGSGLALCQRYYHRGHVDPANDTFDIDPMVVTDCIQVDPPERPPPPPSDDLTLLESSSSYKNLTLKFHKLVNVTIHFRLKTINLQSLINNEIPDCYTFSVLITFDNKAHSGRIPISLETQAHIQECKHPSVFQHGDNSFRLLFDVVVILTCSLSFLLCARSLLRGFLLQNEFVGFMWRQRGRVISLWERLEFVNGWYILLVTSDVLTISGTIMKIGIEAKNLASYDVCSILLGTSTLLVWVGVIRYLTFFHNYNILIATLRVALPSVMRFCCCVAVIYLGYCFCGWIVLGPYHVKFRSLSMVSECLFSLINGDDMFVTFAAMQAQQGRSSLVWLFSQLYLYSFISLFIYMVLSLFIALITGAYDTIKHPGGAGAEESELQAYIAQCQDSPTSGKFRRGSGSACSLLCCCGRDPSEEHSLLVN
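TRPML1-DL cells, Tet-induced overnight (~16 h, 37 degrees C), loaded 45-90 min at room temperature with Ca8 no-wash calcium dye plus quencher. FDSS fluorescence: 10 s baseline, compound pin-transfer, 110 s agonist read, then EC80 54-4 (4uM final) and 110 s antagonist read.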
CtBP-E1A blk – CtBP/E1A binding inhibition | AlphaScreen GST-E1A/His-CtBP binding, 1536-well; stronger effect = lower value; control for the full effect not named in the record | actives 0.49% (n = 340,000) | activity change, % (concentration not given with the values); in the data active means activity change below about -65%; inconclusive means about -30% to -65%; inactive means above about -30%; also: % is scaled to controls: 0 for no effect and ±100 for the full control effect
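GST-E1A and His-tagged CtBP (125 nM each as 5X stock) were preincubated with pin-transferred compound for 2 h at 37 °C in the dark, then glutathione donor and nickel acceptor beads were added for 1 h before AlphaScreen reading.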
Starred values were filed as active, the others as inactive; [ ] = remark or other dose.

Results for CN1C(C(=O)NCc2cccc(C(F)(F)F)c2)CC2Cn3c(nc4cc5ccccc5cc43)C21 (stereo not drawn) ?
D2 PAM: -2.6; PINK1 expr mod: -0.2%; Six1-Eya2 inh: -3.0; D2 ag: -0.1; TRPML1 ag: -1.0; CtBP-E1A blk: -2.4

How did CNc1nc(Oc2cccc(F)c2)c2sccc2n1 do in these assays?
D2 PAM: -1.4; PINK1 expr mod: 7.1%; Six1-Eya2 inh: -5.2; D2 ag: -3.2; TRPML1 ag: -0.1; CtBP-E1A blk: 4.5

How did N#CC(C#N)=C1CCc2ccccc2N1 do in these assays?
D2 PAM: -10.0; PINK1 expr mod: -2.5%; Six1-Eya2 inh: 13.5; D2 ag: -1.6; TRPML1 ag: 0.8; CtBP-E1A blk: 1.5

What do the screens show for `CSCc1ccc(C(=O)Nc2cc(C)cc(C)c2)cc1`?
D2 PAM: -28.9; PINK1 expr mod: 1.5%; Six1-Eya2 inh: -16.2; D2 ag: -1.0; TRPML1 ag: 2.4; CtBP-E1A blk: -16.1

Results for Cc1ccc(OCc2cc(C(=O)N3CCN(CC(=O)NC(C)C)CC3)no2)cn1 ?
D2 PAM: -0.1; PINK1 expr mod: -1.5%; Six1-Eya2 inh: 0.1; D2 ag: 1.9; TRPML1 ag: 0.3; CtBP-E1A blk: 5.9

How did CC1CCN(CCOCCOc2ccccc2-c2ccccc2)CC1 do in these assays?
D2 PAM: -45.0; PINK1 expr mod: 3.0%; Six1-Eya2 inh: -1.9; D2 ag: -2.6; TRPML1 ag: -0.1; CtBP-E1A blk: -3.7

Results for CSc1ccc(NC(=O)Nc2cccn(Cc3ccccc3)c2=O)cc1 ?
D2 PAM: -6.2; PINK1 expr mod: -1.4%; Six1-Eya2 inh: -20.8; D2 ag: 0.9; TRPML1 ag: -1.2; CtBP-E1A blk: -6.0

Results for O=C(Cc1cccc(NC(=O)C2CCCN(C(=O)C3CCC3)C2)c1)Nc1cccc(C(=O)N2CCOCC2)c1 (stereo not drawn) ?
D2 PAM: -3.3; PINK1 expr mod: -0.2%; Six1-Eya2 inh: -7.4; D2 ag: -1.4; TRPML1 ag: -0.5; CtBP-E1A blk: 3.6

Results for Cc1cc(C(=O)OCC(=O)Nc2ccc(S(N)(=O)=O)cc2)c2ccccc2n1 ?
D2 PAM: -11.1; PINK1 expr mod: -1.1%; Six1-Eya2 inh: -4.5; D2 ag: -4.5; TRPML1 ag: -0.2; CtBP-E1A blk: -5.5

Results for CCNS(=O)(=O)c1ccc(CCC(=O)NCc2cccnc2)cc1 ?
D2 PAM: 21.5; PINK1 expr mod: 0.4%; Six1-Eya2 inh: 0.5; D2 ag: 5.0

How did Cc1ccccc1N/C(SCc1cccc(Br)c1)=C(/C#N)C(N)=O do in these assays?
D2 PAM: -5.3; PINK1 expr mod: 7.3%; Six1-Eya2 inh: 3.1; D2 ag: 2.2; TRPML1 ag: 3.2; CtBP-E1A blk: -19.4

What do the screens show for `Nc1ncc(N=Nc2cc(C(=O)O)ccc2Cl)s1`?
D2 PAM: -22.0; PINK1 expr mod: -0.8%; Six1-Eya2 inh: -8.8; D2 ag: -8.4; TRPML1 ag: -1.0

What do the screens show for `CCOc1ccc(C2CC(c3ccc(F)cc3)Nc3nc(N)nn32)cc1` (stereo not drawn)?
D2 PAM: 1.2; PINK1 expr mod: 2.8%; Six1-Eya2 inh: 1.3; D2 ag: -2.3; TRPML1 ag: 0.3; CtBP-E1A blk: 3.6

What do the screens show for `CCOCCCN(C(=O)CNC(=O)c1ccco1)C(C(=O)NC1CCCC1)c1ccccc1C` (stereo not drawn)?
D2 PAM: -0.3; PINK1 expr mod: -1.0%; Six1-Eya2 inh: 7.3; D2 ag: -0.7; TRPML1 ag: 0.0; CtBP-E1A blk: -0.1

Results for Cc1ccc(CN2C(=O)CCC2(C)c2nnnn2-c2c(C)cccc2C)cc1 (stereo not drawn) ?
PINK1 expr mod: 0.6%; Six1-Eya2 inh: 12.9; TRPML1 ag: -0.5; CtBP-E1A blk: 3.6

Compounds from the list above with a cyano group, in the order listed:
How did N#CC(C#N)=C1CCc2ccccc2N1 do in these assays?
D2 PAM: -10.0; PINK1 expr mod: -2.5%; Six1-Eya2 inh: 13.5; D2 ag: -1.6; TRPML1 ag: 0.8; CtBP-E1A blk: 1.5

How did Cc1ccccc1N/C(SCc1cccc(Br)c1)=C(/C#N)C(N)=O do in these assays?
D2 PAM: -5.3; PINK1 expr mod: 7.3%; Six1-Eya2 inh: 3.1; D2 ag: 2.2; TRPML1 ag: 3.2; CtBP-E1A blk: -19.4

Remaining list, next part.
Results for Cc1cc(C)n(CC(C)NC(=O)CCc2nnc(CCc3ccccc3)o2)n1 (stereo not drawn) ?
D2 PAM: -0.3; PINK1 expr mod: 0.2%; Six1-Eya2 inh: -2.9; D2 ag: -3.3; TRPML1 ag: -0.3; CtBP-E1A blk: 0.6

How did COc1ccc(S(=O)(=O)CCC(=O)N2CCN(c3cccc(Cl)c3)CC2)cc1 do in these assays?
D2 PAM: -2.8; PINK1 expr mod: 0.2%; Six1-Eya2 inh: -3.8; D2 ag: 2.6; TRPML1 ag: -0.8; CtBP-E1A blk: 0.5

How did COc1ccc(OC)c(NC(=O)CSc2ncccc2C(=O)O)c1 do in these assays?
D2 PAM: 1.5; PINK1 expr mod: 3.3%; Six1-Eya2 inh: 1.9; D2 ag: -1.1; TRPML1 ag: -0.1; CtBP-E1A blk: -0.1

What do the screens show for `OC[C@@H]1[C@@H](c2ccc(F)cc2)C(c2ccccc2)=NN1c1ccccc1`?
D2 PAM: 5.5; PINK1 expr mod: -1.5%; Six1-Eya2 inh: 92.3; D2 ag: 2.1; TRPML1 ag: 1.7; CtBP-E1A blk: 86.5

What do the screens show for `Cc1nn(-c2ccccc2)c2sc(C(=O)NNC(=O)COc3cccc4ccccc34)cc12`?
D2 PAM: 2.3; PINK1 expr mod: 3.7%[38.3 µM]; Six1-Eya2 inh: 4.5; D2 ag: -3.3; TRPML1 ag: 0.4; CtBP-E1A blk: 4.0

How did CC(=O)Nc1ccc(S(=O)(=O)N2CCSC2c2ccccc2)cc1 (stereo not drawn) do in these assays?
D2 PAM: -13.0; PINK1 expr mod: 0.8%; Six1-Eya2 inh: -2.3; D2 ag: -3.1; TRPML1 ag: -0.4; CtBP-E1A blk: -1.9

Results for COc1ccc(N(C)S(=O)(=O)c2c(C)[nH]c(=O)[nH]c2=O)c(OC)c1 ?
D2 PAM: -2.1; PINK1 expr mod: 6.0%; Six1-Eya2 inh: -0.6; D2 ag: 2.3; TRPML1 ag: -1.1; CtBP-E1A blk: -3.7

How did C=CCn1c(Cn2c(-c3cnccn3)nc3ccccc32)nc2ccccc21 do in these assays?
PINK1 expr mod: -0.4%; Six1-Eya2 inh: -17.6; TRPML1 ag: -0.8; CtBP-E1A blk: -9.9

What do the screens show for `CCC(=O)N1CCc2cc(Br)c(S(=O)(=O)CCC(=O)NCCOC)cc21`?
D2 PAM: -5.7; PINK1 expr mod: 1.1%; Six1-Eya2 inh: -4.7; D2 ag: -2.5; TRPML1 ag: -0.4; CtBP-E1A blk: -4.3

Results for CCN(CC)c1ccc(-n2c(C)c(C(C)=O)c(C(C)=O)c2C)cc1 ?
D2 PAM: 0.6; PINK1 expr mod: -1.7%; Six1-Eya2 inh: -19.4; D2 ag: 1.1; TRPML1 ag: 0.1; CtBP-E1A blk: -17.8

How did CCC(C)(C)c1ccc(OCC(=O)N(C)C)c(C(C)(C)CC)c1 do in these assays?
D2 PAM: -5.3; PINK1 expr mod: -0.7%; Six1-Eya2 inh: 8.5; D2 ag: -3.2; TRPML1 ag: -1.0; CtBP-E1A blk: -3.9

How did CCN(CCn1cccn1)C(=O)CC1C(=O)NCCN1Cc1cccc(OC)c1OC (stereo not drawn) do in these assays?
D2 PAM: -2.8; PINK1 expr mod: 0.8%; Six1-Eya2 inh: -3.0; D2 ag: -0.7; TRPML1 ag: 0.4

Results for Nc1nonc1-c1nc2ccccc2n1Cc1ccc(Cl)cc1 ?
D2 PAM: 3.3; PINK1 expr mod: 14.9%[38.3 µM]; Six1-Eya2 inh: -0.4; D2 ag: -1.1; TRPML1 ag: -0.5; CtBP-E1A blk: 5.3

What do the screens show for `COC[C@@H]1CCCN1c1ccc2c(c1)O[C@H](COCc1ccccc1)CN([C@H](C)c1ccccc1)S2(=O)=O`?
PINK1 expr mod: -0.3%; Six1-Eya2 inh: -4.9; TRPML1 ag: -0.4; CtBP-E1A blk: -5.1

What do the screens show for `O=C(Nc1ccc(O)cc1)c1ccc(C(=O)c2ccccc2)o1`?
D2 PAM: 18.5; PINK1 expr mod: -0.2%; Six1-Eya2 inh: -12.8; D2 ag: 6.7; TRPML1 ag: 0.7; CtBP-E1A blk: -16.4

How did CC(=O)Nc1nnc(SCc2ccccc2F)s1 do in these assays?
D2 PAM: -6.8; PINK1 expr mod: 3.1%; Six1-Eya2 inh: 1.9; D2 ag: -1.1; TRPML1 ag: -0.6; CtBP-E1A blk: -18.1

What do the screens show for `CCOC(=O)c1c(C)n(C)c2ccc(OCC(O)Cn3nc(C)c(Br)c3C)cc12` (stereo not drawn)?
D2 PAM: -3.2; PINK1 expr mod: -2.5%; Six1-Eya2 inh: -2.2; D2 ag: -3.3; TRPML1 ag: 2.2; CtBP-E1A blk: -9.6

How did COc1cc(/C=C(/NC(C)=O)C(=O)O)cc(Cl)c1OCc1ccc(Br)cc1 do in these assays?
D2 PAM: -1.7; PINK1 expr mod: 1.2%; Six1-Eya2 inh: 5.1; D2 ag: -3.7; TRPML1 ag: -0.5; CtBP-E1A blk: -2.0

What do the screens show for `Cc1cc(C(C)(C)C)cc(C)c1S(=O)(=O)N1CC(=O)Nc2ccccc21`?
D2 PAM: 1.3; PINK1 expr mod: -4.1%; Six1-Eya2 inh: -10.3; D2 ag: -1.7; TRPML1 ag: 3.0; CtBP-E1A blk: -5.1

Results for COc1ccc(-c2c(-c3ccc(S(C)(=O)=O)cc3)sc3ccc(OC)cc23)cc1 ?
D2 PAM: -5.7; PINK1 expr mod: -0.6%; Six1-Eya2 inh: 2.4; D2 ag: 1.4; TRPML1 ag: 1.5; CtBP-E1A blk: 5.6

Results for COc1ccc(NC(=S)N(CCCN2CCCCC2)Cc2cccs2)cc1 ?
D2 PAM: -16.5; PINK1 expr mod: -0.2%; Six1-Eya2 inh: -3.0; D2 ag: 2.1; TRPML1 ag: 0.3; CtBP-E1A blk: 6.9

How did Cc1ccc(-c2nnc(NCc3ccccc3)c3ccccc23)cc1 do in these assays?
D2 PAM: -5.7; PINK1 expr mod: inconclusive; Six1-Eya2 inh: 0.6; D2 ag: -3.6; TRPML1 ag: -0.6; CtBP-E1A blk: -1.5

How did CCCOc1ccc(CCC(=O)N/N=C/c2ccncc2)cc1 do in these assays?
D2 PAM: -6.2; PINK1 expr mod: -0.9%; Six1-Eya2 inh: 0.7; D2 ag: -1.8; CtBP-E1A blk: 6.0

How did Nn1c(SCC(=O)Nc2c(F)cc(F)cc2Br)nnc1C1CCCCC1 do in these assays?
D2 PAM: 5.5; PINK1 expr mod: 1.8%; Six1-Eya2 inh: -4.3; D2 ag: 9.5; TRPML1 ag: -0.4
